VACV mCherry inh – qHTS for Stage-Specific Inhibitors of Vaccinia Orthopoxvirus: mCherry Reporter Primary qHTS | 310,000 compounds, 0.63% hits | Vaccinia virus mCherry reporter infection, fluorescence; about a quarter of the inactives have no number | Potency, µM (highest dose often 36.5 µM), inactives show top-dose activity change, negative = inhibition, most hits filed as inhibitors | AID 720579, 2013; active = well fitted inhibition curve with a large enough effect; inconclusive = small, poorly fitted or top-dose-only effect; inactive = no such curve, though single readings can be large or run the other way; tested in A549 cells; note: nearly all actives have a fitted effect of over 35% in size; inactives centre near -10
VACV Venus inh – qHTS for Stage-Specific Inhibitors of Vaccinia Orthopoxvirus: Venus Reporter Primary qHTS; 330,000 compounds, 0.46% hits; Potency, µM (highest dose often 36.5 µM), without a hit: top-dose activity change, negative = inhibition, hits mostly inhibitors; Vaccinia virus Venus reporter expression, fluorescence; AID 720580, 2013; active means well fitted inhibition curve with a large enough effect; inconclusive means small, poorly fitted or top-dose-only effect; inactive means no such curve, though single readings can be large or run the other way; tested in A549 cells; note: nearly all actives have a fitted effect of over 30% in size; inactives centre near -10
Starred values were filed as active, the others as inactive; & = joins results of further samples. % is set by controls: 0 for no effect and ±100 for the full control effect; potency is the fitted concentration of half-maximal effect.

Screening CCOc1ccc(NC(=O)N2CCC(n3nnc4cc(C)ccc43)CC2)cc1 returned VACV mCherry inh -19% and VACV Venus inh -19%.
`Cc1c2cnn(-c3ccccc3)c(=O)c2c(C)n1CC(=O)NCc1ccccc1` gave VACV mCherry inh -1% and VACV Venus inh 8%.
CCn1c(CNC(=O)C(C)(C)C)nc2ccccc21 was read as VACV mCherry inh inactive and VACV Venus inh -22%.
For O=C(Nc1ccccn1)C1CCCN(c2ncnc3c2nc2n3CCCCC2)C1 (configuration not stated) the results were VACV mCherry inh -7% and VACV Venus inh -13%.
For c1coc(-c2nc(-c3ccncc3)no2)c1 the results were VACV mCherry inh -15% and VACV Venus inh -10%.
`COc1ccccc1NC(=O)C1CCCN(c2nc(C)cc(C)n2)C1` (configuration not stated) gave VACV mCherry inh -13% and VACV Venus inh -15%.
`CCCCCCCCCSc1n[nH]c(N)n1` gave VACV mCherry inh -17% and VACV Venus inh -5%.
CC(C)CCNC(=O)C(c1ccco1)N(Cc1cccs1)C(=O)Cn1nnc2ccccc21 (configuration not stated) was read as VACV mCherry inh inactive and VACV Venus inh -3%.
`COc1cccc(NC(=O)CSc2nc3ccccc3nc2N2CCOCC2)c1` gave VACV mCherry inh inactive and VACV Venus inh -15%&-17%.
`CCOc1ccc(N2C(=O)/C(=C/c3ccco3)N(C)C2=S)cc1` gave VACV mCherry inh -5% and VACV Venus inh 2%.
For CCn1c2c(c(=N)c3ccccc31)CCC2 the results were VACV mCherry inh -3% and VACV Venus inh -18%.
For Cn1c(=O)[nH]c(=O)c2c1ncn2CCN1CCOCC1 the results were VACV Venus inh -20%.
For N#C/C(=C\N1CCOCC1)c1ccccc1 the results were VACV mCherry inh inactive and VACV Venus inh -7%.
Screening CCc1ccc(NC(=O)Cn2c(=O)n(Cc3nc(C)no3)c(=O)c3cc4c(cc32)OCO4)cc1 returned VACV mCherry inh inactive and VACV Venus inh -9%.
Cc1cc(C)c(NC(=O)CSc2ccc3nnc(CCNC(=O)c4ccccc4)n3n2)c(C)c1 was read as VACV mCherry inh -13% and VACV Venus inh -11%.
Screening COc1cccc(CNC(=O)C(Cc2ccccc2)n2cccc2)c1 (configuration not stated) returned VACV mCherry inh -14% and VACV Venus inh 2%.
`CCCCC1=CC2=CC(=O)C(C)(OC(=O)CC)C(=O)C2=CN1Cc1ccc2c(c1)OCO2` (configuration not stated) gave VACV mCherry inh inactive and VACV Venus inh -14%.
`COc1cccc(Oc2nccc(N(C)C)c2C#N)c1` gave VACV mCherry inh inactive and VACV Venus inh -6%.
Screening CCOC(=O)N1C(=O)[C@](c2ccc(Cl)cc2)(C(C)C)N1C(=O)OCC returned VACV mCherry inh 10µM* and VACV Venus inh inconclusive.
`Cn1c(N=Nc2ccc(N3CCOCC3)cc2)[n+](C)c2ccccc21` gave VACV mCherry inh -15% and VACV Venus inh -5%.
Cc1ccc(S(=O)(=O)Nc2ccccc2NS(=O)(=O)c2ccc(C)cc2)cc1 was read as VACV mCherry inh inactive and VACV Venus inh -4%.
Screening Cc1nccc(-c2cc(-c3ccc(Cl)cc3Cl)no2)n1 returned VACV mCherry inh -16% and VACV Venus inh -13%.
For C[C@@H]1CCCCO[C@H](CN(C)C(=O)Nc2ccc(C(F)(F)F)cc2)[C@@H](C)CN([C@H](C)CO)C(=O)c2cc(NC(=O)c3ccncc3)ccc2O1 the results were VACV mCherry inh inactive and VACV Venus inh -20%.
Screening O=C(Cc1ccc(Cl)cc1)Nc1ccc2c(c1)C(=O)NC2=O returned VACV mCherry inh inactive and VACV Venus inh 7%.
Cc1ccc2oc(-c3ccco3)nc2c1 was read as VACV mCherry inh -11%&-12% and VACV Venus inh -2%&-13%.
For Nc1n[nH]c(-c2ccccc2[N+](=O)[O-])n1 the results were VACV mCherry inh -11% and VACV Venus inh 6%.
Screening Cc1ccc(Cl)c(OC(=O)C2CSC3(C)CCC(=O)N23)c1 (configuration not stated) returned VACV mCherry inh inactive and VACV Venus inh -9%.
`CC(=O)c1cccc(NC(=O)CC2SC(N3CCCCC3)=NC2=O)c1` (configuration not stated) gave VACV Venus inh -4%.
`Cn1c(=O)c2c(nc(N3CCOCC3)n2Cc2c(F)cccc2Cl)n(C)c1=O` gave VACV mCherry inh -10% and VACV Venus inh 4%.
N/C(=N\OC(=O)C12CC3CC(CC(C3)C1)C2)c1ccncc1 was read as VACV mCherry inh -16% and VACV Venus inh -15%.

Some of these compounds in order of molecular weight, high to low.
For C[C@@H]1CCCCO[C@H](CN(C)C(=O)Nc2ccc(C(F)(F)F)cc2)[C@@H](C)CN([C@H](C)CO)C(=O)c2cc(NC(=O)c3ccncc3)ccc2O1 the results were VACV mCherry inh inactive and VACV Venus inh -20%.
`Cn1c(=O)c2c(nc(N3CCOCC3)n2Cc2c(F)cccc2Cl)n(C)c1=O` gave VACV mCherry inh -10% and VACV Venus inh 4%.
`CC(=O)c1cccc(NC(=O)CC2SC(N3CCCCC3)=NC2=O)c1` (configuration not stated) gave VACV Venus inh -4%.
Screening Cc1ccc(Cl)c(OC(=O)C2CSC3(C)CCC(=O)N23)c1 (configuration not stated) returned VACV mCherry inh inactive and VACV Venus inh -9%.
Screening O=C(Cc1ccc(Cl)cc1)Nc1ccc2c(c1)C(=O)NC2=O returned VACV mCherry inh inactive and VACV Venus inh 7%.
For Nc1n[nH]c(-c2ccccc2[N+](=O)[O-])n1 the results were VACV mCherry inh -11% and VACV Venus inh 6%.

Next records follow:
Screening O=C(Nc1ccc(F)c(F)c1)C1CCN(S(=O)(=O)c2cccc3nonc23)CC1 returned VACV mCherry inh -21% and VACV Venus inh -24%.
Screening CC12CCC(C(=O)NCc3ccccn3)(OC1=O)C2(C)C (configuration not stated) returned VACV Venus inh -6%.
O=C(CCS(=O)(=O)Cc1ccccc1)N1CCN(Cc2ccccc2)CC1 was read as VACV mCherry inh -16% and VACV Venus inh -12%.
COc1ccc(-c2nnc(SCC(=O)N3CCC(C)CC3)o2)cc1 was read as VACV mCherry inh -9% and VACV Venus inh -8%.
COc1ccc(CN/C=C2\CCCCC2=O)cc1 was read as VACV mCherry inh -18% and VACV Venus inh -11%.
`CCOC(=O)C1(Cc2ccc(OC)cc2)CCN(C(=O)C2CCCO2)CC1` (configuration not stated) gave VACV mCherry inh inactive and VACV Venus inh -1%.
Screening O=C(COc1ccccc1)NCCc1csc(-c2ccc(Cl)cc2)n1 returned VACV mCherry inh -18% and VACV Venus inh -5%.
`O=C(CSc1nnc(-c2ccncc2)n1CC1CCCO1)Nc1ccccc1Cl` (configuration not stated) gave VACV mCherry inh -5% and VACV Venus inh -3%.
Screening CCSc1nnc(-c2cnn(-c3ccccc3)c2-n2cccc2)n1C returned VACV Venus inh -5%.
Screening CCCn1c(CCNC(=O)c2ccco2)nc2ccccc21 returned VACV mCherry inh -10% and VACV Venus inh 5%.
c1ccc(-c2cc3c(NCC4COc5ccccc5O4)ncnc3s2)cc1 (configuration not stated) was read as VACV mCherry inh -2% and VACV Venus inh -24%.
For O=C(Nc1ccc(-n2ccnc2P(=O)(O)c2ccccc2)cc1)c1ccccc1Br the results were VACV mCherry inh -3% and VACV Venus inh -3%.
Screening CCCC1(C(=O)OC)NC(c2ccco2)C2C(=O)N(C)C(=O)C21 (configuration not stated) returned VACV mCherry inh -6% and VACV Venus inh 6%.
For CCNc1ccc(S(=O)(=O)N(C)C)cc1NCC(=O)Nc1ccccc1Cl the results were VACV mCherry inh inconclusive and VACV Venus inh -5%.
Screening COC(=O)C1(CC2CC(c3ccc(Cl)cc3)=NO2)CCN(C(=O)OC(C)(C)C)CC1 (configuration not stated) returned VACV mCherry inh -1% and VACV Venus inh -22%.
For COc1cc(NC(=O)c2c(OC)cccc2OC)ccc1NC(=O)c1cc2ccccc2o1 the results were VACV mCherry inh inconclusive and VACV Venus inh inconclusive.
Screening CC1(C)OC(=O)C(=NNc2ccc(Br)cc2)C(=O)O1 returned VACV mCherry inh -10% and VACV Venus inh -4%.
Screening COc1ccc(Br)cc1CN1CCN(c2ncccn2)CC1 returned VACV mCherry inh -9% and VACV Venus inh -24%.
Screening O=C(COC(=O)C12CC3CC(CC(C3)C1)C2)NCCCc1ccccc1 returned VACV mCherry inh -17% and VACV Venus inh -11%.
CC(=O)c1c(O)cc(=O)n(-c2ccccc2)c1-c1ccc(C)cc1 was read as VACV Venus inh -14%.

The final 3 records of the section above come first, to join the parts:
Screening COc1ccc(Br)cc1CN1CCN(c2ncccn2)CC1 returned VACV mCherry inh -9% and VACV Venus inh -24%.
Screening O=C(COC(=O)C12CC3CC(CC(C3)C1)C2)NCCCc1ccccc1 returned VACV mCherry inh -17% and VACV Venus inh -11%.
CC(=O)c1c(O)cc(=O)n(-c2ccccc2)c1-c1ccc(C)cc1 was read as VACV Venus inh -14%.
CCOC(=O)CSc1nc2ccccc2c(=O)[nH]1 was read as VACV mCherry inh inactive and VACV Venus inh -18%.
For COc1ccc(/C=C2\CCCC3C2=NN(C(=O)c2ccco2)C3c2ccc(OC)c(OC)c2)cc1OC (configuration not stated) the results were VACV Venus inh inconclusive.
For COc1cc(NC(=S)NC(=O)CC(C)C)ccc1NC(=O)c1cc2ccccc2o1 the results were VACV mCherry inh -10% and VACV Venus inh 5%.
Screening Nc1ccc2c(c1)ncn2CCCn1cnc2cc(N)ccc21 returned VACV mCherry inh -3% and VACV Venus inh -11%.
Screening CC(C)CC(=O)N1CCN(Cc2ccc(Br)cc2)CC1 returned VACV mCherry inh -12% and VACV Venus inh -2%.
For COc1ccc(C)cc1NC(=O)c1oc2ccc(S(=O)(=O)N3CCCCC3)cc2c1C the results were VACV mCherry inh -13% and VACV Venus inh -5%.
Cc1ccc(C)c(-n2cc(CN3CCN(C(=O)c4ncn[nH]4)CC3)c(-c3ccccc3)n2)c1 was read as VACV mCherry inh -3% and VACV Venus inh -21%.
For O=C1Cc2cc(S(=O)(=O)Nc3ccc(OC(F)(F)F)cc3)cc3c2N1CCC3 the results were VACV mCherry inh -16% and VACV Venus inh -8%.
Screening COc1cc(C(=O)N2CCCCCCC2)ccc1OC1CCN(C(C)=O)CC1 returned VACV mCherry inh -14% and VACV Venus inh -3%.
For COc1ccc(CC(=O)N[C@@H]2c3cc(OC)c(OC)cc3C[C@H]2O)cc1 the results were VACV mCherry inh -12% and VACV Venus inh -3%.
For FC(F)Oc1ccccc1NC(=S)Nc1cccc(Cl)c1Cl the results were VACV mCherry inh inactive and VACV Venus inh -4%.
COc1ccc(Cl)cc1NC(=O)CSc1nc(N2CCOCC2)nc(N2CCOCC2)n1 was read as VACV mCherry inh inactive and VACV Venus inh -12%.
For CCOC(=O)N1CCN(C(=O)c2noc(C(C)C)c2[N+](=O)[O-])CC1 the results were VACV mCherry inh -5% and VACV Venus inh -1%.
For CCOC(=O)Nc1c(O)ccc2oc(C)c(-c3ccccc3)c12 the results were VACV Venus inh -24%.
`Nc1cc(C(=O)OCC(=O)NNC(=O)c2cccs2)ccc1Cl` gave VACV mCherry inh -17% and VACV Venus inh -1%.
Screening OC(COC(c1ccccc1)c1ccccc1)CN1CCc2ccccc2C1 (configuration not stated) returned VACV mCherry inh -23% and VACV Venus inh -14%.
Cc1c(NC(=O)c2ccc(N(C)S(C)(=O)=O)cc2)c(=O)n(-c2ccccc2)n1C was read as VACV mCherry inh -11% and VACV Venus inh -5%.
For COc1ccc(C(=O)NN(c2ccccc2)c2ccccc2)cc1 the results were VACV mCherry inh -3% and VACV Venus inh 2%.
Screening COC(=O)c1nc(N)sc1C(C)C returned VACV mCherry inh 10% and VACV Venus inh -3%.
`CCn1c(CCNC(=O)c2ccc(F)cc2)nc2ccccc21` gave VACV mCherry inh 14% and VACV Venus inh -1%.
O=C(NCCCN1CCOCC1)c1c(F)c(F)c(F)c(F)c1F was read as VACV mCherry inh inconclusive and VACV Venus inh -21%.
For C=CCn1c(SCc2cc(=O)n3cc(C)ccc3n2)nnc1-c1ccc(F)cc1 the results were VACV mCherry inh -22% and VACV Venus inh -13%.
Cc1ccc(S(=O)(=O)N2CCN(c3nc(Nc4ccccc4O)nc4ccccc34)CC2)cc1 was read as VACV mCherry inh inactive and VACV Venus inh -10%.
O=C1c2ccccc2C(=O)N1CCOc1cccc(Br)c1 was read as VACV mCherry inh inactive and VACV Venus inh -13%.
Screening COc1ccc(C2(C(=O)NC3CCCCC3)CCOCC2)cc1OC returned VACV mCherry inh -16% and VACV Venus inh -7%.
Screening O=C(CSCc1ccccc1)Nc1ccc(F)c(F)c1 returned VACV mCherry inh -1% and VACV Venus inh -16%.
Screening Cc1ccccc1NC(=O)CSC(=O)c1ccccc1 returned VACV mCherry inh -19% and VACV Venus inh -10%.
CSc1nnc(-c2cccc(C)c2)n1N was read as VACV Venus inh -5%.
COc1ccc(N(C)C(=O)C2CCN(S(=O)(=O)c3cc(Br)cc4c3N(C(C)=O)CC4)CC2)cc1 was read as VACV mCherry inh -13% and VACV Venus inh -15%.
`COc1cc(/C=N/NC(=O)C(Cc2c[nH]c3ccccc23)NC(=O)OCC(C)C)cc([N+](=O)[O-])c1O` (configuration not stated) gave VACV mCherry inh -19% and VACV Venus inh -16%.
Screening COc1ccc(C2=CC(=O)C[C@H](c3ccc4c(c3)OCO4)C2)cn1 returned VACV mCherry inh -20% and VACV Venus inh -19%.
For COc1cc(OC)cc(C(=O)N[C@H](C(=O)NCc2ccc(F)cc2)C(C)C)c1 the results were VACV mCherry inh -32% and VACV Venus inh -22%.
For COc1ccc(CCNc2nc(-c3ccc(F)cc3)c(CC(=O)O)s2)cc1OC the results were VACV mCherry inh -11% and VACV Venus inh -6%.

High-throughput results (PubChem BioAssay)
